Source: PubChem BioAssay (National Center for Advancing Translational Sciences (NCATS))
Cruzain noTriton – qHTS Assay for Promiscuous and Specific Inhibitors of Cruzain (without detergent). Cruzipain (Trypanosoma cruzi), P25779. purified cruzain, Z-FR-AMC fluorescence, no detergent. Potency, µM, inactives show max response, negative = inhibition, hits mostly inhibitors. hit rate 2.3% among 200,000. AID 1476, 2009;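 note: plate controls were enzyme without inhibitor for no effect and buffer without enzyme for full effect; nearly all actives have a fitted effect of over 40% in size; top concentration of the series not given in the record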
Target sequence (P25779 123-467 limits assumed): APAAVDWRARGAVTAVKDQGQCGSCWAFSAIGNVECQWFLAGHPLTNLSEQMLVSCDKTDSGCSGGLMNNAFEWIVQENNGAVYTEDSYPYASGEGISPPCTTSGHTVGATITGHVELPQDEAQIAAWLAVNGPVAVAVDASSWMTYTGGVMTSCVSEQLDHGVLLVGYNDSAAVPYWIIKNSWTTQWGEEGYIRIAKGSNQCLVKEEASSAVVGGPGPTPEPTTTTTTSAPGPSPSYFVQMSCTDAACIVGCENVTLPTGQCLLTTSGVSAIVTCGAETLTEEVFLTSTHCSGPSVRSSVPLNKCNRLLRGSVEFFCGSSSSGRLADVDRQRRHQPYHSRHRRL
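Purified cruzain at 1.5 nM, pre-incubated 15 min with compound at room temperature in 100 mM sodium acetate pH 5.5, 5 mM DTT, 0.00005% Triton X-100. Reaction started with 2 uM Z-FR-AMC; AMC fluorescence increase over 60 s gives rate.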
RE007 growth inh – qHTS Assay for Inhibitors of the HIV-1 protein Vpr; S. pombe RE007 Vpr strain, BacTiter-Glo ATP luminescence, 24 h; control for the full effect not named in the record; Potency, µM (doses to about 92.2 µM), for inactives: top-dose activity change, negative = less growth; hit rate 0.21% among 360,000; AID 651644, 2012; active = well fitted falling curve with a large enough effect; inconclusive = small, poorly fitted or top-dose-only effect; inactive = no such curve, though single readings can be large or run the other way;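 note: % is set by controls: 0 for no effect and ±100 for the full control effect; nearly all actives have a fitted effect of over 50% in size; the assay follows cell death caused by Vpr and the record does not say whether a fall means rescue or toxicity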
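Fission yeast strain RE007, carrying one chromosomally integrated HIV-1 vpr copy, was seeded at OD 0.01 in PMG+AL medium with 23 nL pinned compound. After 24 h at 30 °C and 99% humidity, viability was read by BacTiter-Glo luminescence.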
Lassa entry inh – qHTS for Inhibitors of binding or entry into cells for Lassa Virus | AID 540256, 2011 | hit rate 1.2% among 300,000 | Potency, µM (titrated, usually from 37.9 µM), inactives show at the top dose activity change, negative = inhibition, usual class: inhibitors | Lassa virus pseudotype entry inhibition, cell reporter; control for the full effect not named in the record; active means well fitted inhibition curve with a large enough effect; inconclusive means small, poorly fitted or top-dose-only effect, or effect the other way; inactive means flat fitted curve, though single readings scatter; tested in HEK293 cells; note: % is set by controls: 0 for no effect and ±100 for the full control effect; nearly all actives have a fitted effect of over 50% in size; luciferase read-out
NS1 function inh – qHTS Assay for Inhibitors of Influenza NS1 Protein Function; S. cerevisiae slowed by influenza A NS1, growth recovery by OD600; hit rate 0.4% among 270,000; Potency, µM (doses to about 46.1 µM), for the others: at the highest dose activity, positive = more growth; AID 2326, 2010; active means well fitted rising curve with a large enough effect; inconclusive means small, poorly fitted or top-dose-only effect; inactive means no such curve, though single readings can be large or run the other way; note: nearly all actives have a fitted effect of over 50% in size
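Read-out: OD600 growth recovery of NS1-expressing budding yeast. Cells grown overnight at 30C in -URA glucose medium, washed, resuspended and diluted 1:100 in 2% galactose assay medium, pH 6.0. Same strain lacking NS1 served as positive control.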
Marburg entry inh – qHTS for inhibitors of binding or entry into cells for Marburg Virus | Potency, µM (series often up to 37.8 µM), without a hit: top-dose activity change, negative = inhibition, actives largely listed as inhibitors | Marburg virus pseudotyped entry inhibition, cell reporter; control for the full effect not named in the record; about a third of the inactives were read at about 46 µM | hit rate 1.8% among 300,000; active = well fitted inhibition curve with a large enough effect; inconclusive = small, poorly fitted or top-dose-only effect, or effect the other way; inactive = flat fitted curve, though single readings scatter; tested in HEK293 cells; about a fifth of its hits are not listed in these tables; note: % is set by controls: 0 for no effect and ±100 for the full control effect; luciferase read-out
Cruzain Triton – qHTS Assay for Promiscuous and Specific Inhibitors of Cruzain (with detergent) | hit rate 0.43% among 200,000 | Potency, µM, for the others: max response, negative = inhibition, usual class: inhibitors | Cruzipain (Trypanosoma cruzi), P25779 | AID 1478, 2009 | purified cruzain, Z-FR-AMC fluorescence, 0.01% Triton;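 note: plate controls were neutral wells for no effect and buffer without enzyme for full effect; nearly all actives have a fitted effect of over 40% in size; top concentration of the series not given in the record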
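Enzyme 1.5 nM, Z-FR-AMC 2 uM, NaOAc 100 mM pH 5.5, DTT 5 mM, Triton X-100 0.01%; 15 min RT compound preincubation; kinetic ex360/em450, 60 s delta.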
SARS PLP yeast – qHTS of Yeast-based Assay for SARS-CoV PLP; Potency, µM (titrated, usually from 32.9 µM), for the others: at the top dose activity, positive = growth rescue; hit rate 0.19% among 330,000; AID 485353, 2010; S. cerevisiae expressing SARS-CoV PLpro, growth rescue; control for the full effect not named in the record; active means well fitted rising curve with a large enough effect; inconclusive means small, poorly fitted or top-dose-only effect; inactive means no such curve, though single readings can be large or run the other way; note: 0% is about no effect; nearly all actives have a fitted effect of over 55% in size; growth read by luminescence after 48 h
2A StopGo – High Throughput Screening for Foot and Mouth Disease Virus Antivirals; human cells with a luciferase reporter of 2A StopGo recoding; control for the full effect not named in the record; Potency, µM (titrated, usually from 57.9 µM), for the others: top-dose signal change, negative = less light; hit rate 1.2% among 410,000; AID 1159524, 2015; active = well fitted falling curve with a large enough effect; inconclusive = small, poorly fitted or top-dose-only effect; inactive = no such curve, though single readings can be large or run the other way; tested in HEK293T cells; note: % is set by controls: 0 for no effect and ±100 for the full control effect; nearly all actives have a fitted effect of over 45% in size; luciferase light after 4 h
An asterisk follows results filed as active; ? = inconclusive; / = no result given; & = joins results of further samples; [ ] = dose if it differs, or a comment. Unless noted, calls come from the whole dose curve; as a rule, active = well fitted curve in the direction sought with a large enough effect; inconclusive = small, poorly fitted or top-dose-only effect, or another doubt; inactive = no such curve, though single readings can be large; an effect the other way counts as inactive or inconclusive. Potency is the fitted concentration of half-maximal effect. This is a random part of the collection. Share with any hit: about 4.5%.

Below each compound: Cruzain noTriton, RE007 growth inh, Lassa entry inh, NS1 function inh, Marburg entry inh, Cruzain Triton, SARS PLP yeast, 2A StopGo
CC(C)OCCCNC(=S)Nc1ccc(S(N)(=O)=O)cc1
    12%, 19%, ?, 15%, 0%, -4.4%, 10%, 6%
CCN1CCN(Cc2ccc(NC(=O)c3ccc(C)c(NC(=O)c4csc(-c5ccncc5)n4)c3)cc2C(F)(F)F)CC1
    /, -9%, /, -33%, /, /, 5%, -18%
O=C(CN(C(=O)c1csnn1)c1ccc(F)cc1)NCc1ccc(F)cc1
    /, -5%, -5%[46.1 µM], 2%, -13%[46.1 µM], /, 0%, 6%
COc1cccc(COC(=O)c2c(C)nn(-c3ccccc3)c2Cl)c1OC
    /, -10%, ?, 6%, ?, /, 0%, -2%
Cc1cc(C(=O)COC(=O)c2ccc3c(c2)OCO3)c(C)n1Cc1cccs1
    ?, -5%, ?, 0%, -26%, -0.1%, -8%, -14%
CC1(C)CC(=O)C(C(C#Cc2ccccc2)C2=C(O)CC(C)(C)CC2=O)=C(O)C1
    4%, -21%, -11%, 24%, ?, -3.4%, 1%, 9%
Cn1cc(C(=O)c2ccc(Cl)cc2Cl)cc1C=O
    /, -1%, 1%, -10%, -3%[46.1 µM], /, 0%, -14%
COc1cc(NS(=O)(=O)c2c(C(=O)N3CCCCC3)c(C)n(C)c2C)cc(OC)c1OC
    11%, /, 5%[46.1 µM], /, /, -0.9%, /, -12%
C=C1C[C@]23C[C@@]1(O)CC[C@H]2[C@@]12C=C[C@H](O)[C@@](C)(C(=O)O1)[C@H]2[C@@H]3C(=O)O
    -1%, 6%&13%, /, /, /, 6.2%, -10%, -22%&-14%
COc1ccc(C(CC(=O)O)N2Cc3ccccc3C2=O)cc1OC (stereo not drawn)
    /, -5%, /, 0%, /, /, 1%, -13%
O=C(CSc1nnc(-c2cccnc2)o1)Nc1cccc(F)c1
    /, -1%, -13%, /, 0%[46.1 µM], /, 1%, 8%
Cc1cccc(-c2nc(Cn3c(SCc4cc(C)ccc4C)nc4ccncc43)c(C)o2)c1
    -20%, /, 0%[46.1 µM], /, -1%[46.1 µM], -6.3%, /, ?
COc1ccc2c(c1)-c1nc(NC(=O)c3cc(Cl)ccc3OC)sc1CC2
    -13%, /, -3%[46.1 µM], /, -1%[46.1 µM], -7.2%, /, -9%
CCOCCCNC(=O)N1CCOCC1
    -1%, -2%, 1%, 7%, 15%, 0.7%, -2%, -15%
COc1cccc(C(=O)N/N=C/C(Br)=C/c2ccccc2)c1
    11%, -4%, -21%, 1%, ?, -9.0%, -89%, 6%
Oc1[nH]c2ccccc2c1C=Nc1ccc2c(c1)OCO2
    -9%, -8%, ?, -11%, ?, -13%, -16%, -5%
O=C(O)CCC(=O)NNc1nc2ccccc2nc1-c1ccccc1
    /, -7%, 16%, -1%, 2%[46.1 µM], /, -1%, -12%
NC(=O)c1ccsc1NC(=O)CSc1ncnc2sccc12
    /, 10%, 0%[46.1 µM], /, -14%[46.1 µM], /, 3%, 7%
COc1ccccc1-n1c(SCC(=O)Nc2cccc(S(N)(=O)=O)c2)nc2ccccc2c1=O
    /, 27%, 0%, /, ?, /, -1%, -17%
CCC(CO)N=C1CC(C)(C)CC(=O)/C1=C(/O)CCCN1C(=O)c2ccccc2C1=O (stereo not drawn)
    /, 4%, -9%[46.1 µM], /, -19%[46.1 µM], /, 4%, 12%
CCOC(=O)c1ccc(CN(Cc2ccc(C)cc2)S(=O)(=O)c2ccc(F)c(C(=O)Nc3ccc(C)c(F)c3)c2)cc1
    -9%, /, -10%[46.1 µM], /, /, 0.2%, /, -6%
Cc1ccc(-n2c(SCC(=O)N(C)C3CCS(=O)(=O)C3)nc3ccccc3c2=O)c(C)c1 (stereo not drawn)
    /, 3%, -11%[46.1 µM], /, 9%, /, 0%, 1%
Brc1ccc2c(c1)OCCOCCOCCOCCOCCOCCO2
    -2%, 4%, -8%, -10%, ?, -4.0%, -6%, -7%
Cn1c(=O)c2c(nc(NCc3ccc4c(c3)OCO4)n2Cc2ccc(F)cc2)n(C)c1=O
    -9%, 6%[3.69 µM], -13%, -21%, ?, 0.3%, -3%, ?
Cc1cc(C)cc(NC(=O)Cn2cc(C(=O)C3CCCCC3)c3ccccc32)c1
    5%, /, 9%[46.1 µM], /, 0%[46.1 µM], -2.1%, /, -16%
CCOC(=O)N1CCC(NC(=O)c2ccc3c(c2)N(Cc2ccccc2)C(=O)c2ccccc2S3=O)CC1 (stereo not drawn)
    ?, /, 15%[46.1 µM], /, -1%[46.1 µM], 0.0%, /, 2%
O=C(Cc1ccccc1)NC1CCS(=O)(=O)C1 (stereo not drawn)
    -2%, 2%, 9%, -2%, 4%, 0.8%, 17%, -4%
COc1ccc(C)cc1NC1=NCCCS1
    /, -4%, -13%[46.1 µM], 1%, -4%[46.1 µM], /, 3%, 2%
COc1ncccc1C(=O)N1CCC(n2nccc2NC(=O)CC(C)C)CC1
    /, -15%, ?, 2%, 18%, /, -6%, 15%
Cc1ccc(NC(=O)Cc2nnc(N)s2)cc1
    /, 5%, ?, -2%, ?, /, -1%, 14%
Cc1cccc(NC(=O)CCCN2C(=O)c3ccccc3C2=O)n1
    -2%, -14%, -5%, -15%, ?, -0.8%, -3%, 15%
COc1ccc(NC(=O)CCN2C(=O)C3C4C=CC(C4)C3C2=O)cc1 (stereo not drawn)
    /, 1%, -18%, 3%, ?, /, 0%, 4%
O=C(Cn1c(=O)c(CNc2ccccc2)cc2cc3c(cc21)OCCO3)Nc1ccccc1Cl
    26%, /, ?, /, /, -2.3%, /, 20%
CCc1ccc(-c2c(C)sc(NC(=O)C3CCC3)c2C#N)cc1
    16µM*, -11%, -1%, -3%, 19%, -0.3%, 28%, -12%
COc1cccc2c(O)cc(=O)n(C)c12
    13%, -27%, 10%, 29%, -15%, -0.3%, 2%, -14%
Oc1oc(C=Nc2ccc(F)cc2F)c2ccccc12
    /, 12%, /, 4%, /, /, 1%, 14%
CC(C)C(=O)NS(=O)(=O)c1ccc(N)cc1
    -1%, 0%, 16%, 1%, ?, 5.1%, ?, -2%
Cc1ccc(NC(=O)C2CCCN2S(=O)(=O)c2ccc3nc(-c4ccccc4)[nH]c3c2)cc1C (stereo not drawn)
    5%, /, -23%[46.1 µM], /, /, -1.0%, /, -17%
CCCCN(C(=O)COC(=O)CSc1cc(C)c2ccccc2n1)c1c(N)n(CCC)c(=O)[nH]c1=O
    /, -12%, 2%[46.1 µM], -27%, -21%[46.1 µM], /, -3%, 1%
CCOc1ccc(-n2c(=O)c3sccc3n(CC(=O)NC3CCCCC3)c2=O)cc1
    /, 2%, 8%[46.1 µM], 0%, 5%[46.1 µM], /, 11%, -3%
S=C(NCc1ccco1)Nc1ccccn1
    /, -16%, 13%[46.1 µM], -4%, 0%[46.1 µM], /, 2%, 5%
CC1(C)CC(=O)C2=C(C1)Oc1ncn(Cc3ccco3)c(=N)c1C2c1ccccc1 (stereo not drawn)
    -2%, -2%, -25%, -64%, -5%, 1.3%, -15%, 0%
COC(=O)c1nn(-c2ccccc2)c2nnc(Cc3ccc(C)cc3)c(=O)n12
    -14%, -15%, 3%, 2%, ?, 0.5%, -1%, -1%
Cc1ccnc(NC(=O)COc2ccc3oc4c(c3c2)CCCC4)c1
    5%, -18%, 13%, -7%, ?, -9.3%, 3%, 0%
O=C(/C=C/c1cn(-c2ccccc2)nc1-c1cccnc1)NCCN1CCOCC1
    /, 21%, 24%[46.1 µM], /, ?, /, 0%, -23%
Cc1nc(S(=O)(=O)c2ccc(Cl)cc2)c(NCc2ccccc2)o1
    32µM*, 15%, -17%, 3%, ?, ?, 5%, -21%
CCCn1c(SCC(=O)c2c[nH]c3ccccc23)nnc1-c1ccncc1
    -16%, 10%, 6%, 3%, -1%, -2.8%, 11%, -18%
O=C(O)C1CCCCN1C(=O)c1ccc(S(=O)(=O)N2CCCC2)cc1 (stereo not drawn)
    /, -3%, ?, /, 28%[46.1 µM], /, -5%, -23%
Fc1cccc(Cn2cc(C(=S)N3CCCCC3)c3ccccc32)c1
    ?, 18%, ?, 0%, ?, -0.2%, -9%, 29%
COc1ccc(NS(=O)(=O)c2ccc(OCC(=O)N3CCOCC3)cc2)cc1
    -2%, 9%, -1%, 11%, -9%, 4.0%, -5%, /

(list continues)
Below each compound: Cruzain noTriton, RE007 growth inh, Lassa entry inh, NS1 function inh, Marburg entry inh, Cruzain Triton, SARS PLP yeast, 2A StopGo
Cc1cc(NC(=O)CSc2nc3c(C)cccc3cc2C#N)no1
    /, -1%, ?, -6%, ?, /, -4%, -2%
Cn1c(NCc2ccccc2)nc2c1c(=O)n(Cc1ccccc1)c(=O)n2C
    11%, -24%, -16%, -5%, -16%, -0.1%, -5%, ?
CCSc1nc2ccccc2n1Cc1ccccc1F
    0%, -13%, 0%, -31%, 15%, -8.0%, 18%, -23%
CCOC(=O)C(=O)NCC(c1ccco1)S(=O)(=O)c1cccs1 (stereo not drawn)
    /, 4%, 7%, /, -12%[46.1 µM], /, -1%, -3%

Not a retest: entries from further up.
Below each compound: Cruzain noTriton, RE007 growth inh, Lassa entry inh, NS1 function inh, Marburg entry inh, Cruzain Triton, SARS PLP yeast, 2A StopGo
Cn1c(NCc2ccccc2)nc2c1c(=O)n(Cc1ccccc1)c(=O)n2C
    11%, -24%, -16%, -5%, -16%, -0.1%, -5%, ?
CCSc1nc2ccccc2n1Cc1ccccc1F
    0%, -13%, 0%, -31%, 15%, -8.0%, 18%, -23%
CCOC(=O)C(=O)NCC(c1ccco1)S(=O)(=O)c1cccs1 (stereo not drawn)
    /, 4%, 7%, /, -12%[46.1 µM], /, -1%, -3%
